ClpP mod = qHTS Assay for Activators of ClpP; purified B. subtilis ClpP, FRET peptide cleavage, 20 min; 340,000 tested, 1.9% active; ATP-dependent Clp protease proteolytic subunit (Bacillus subtilis (strain 168)), P80244; AID 651965, 2013; Potency, µM (titrated, usually from 57.5 µM), inactives show at the highest dose activity change, negative = active; active = well fitted falling curve with a large enough effect; inconclusive = small, poorly fitted or top-dose-only effect; inactive = no such curve, though single readings can be large or run the other way; note: the source files actives as falling curves though it sought activators and does not explain the sign; nearly all actives have a fitted effect of over 65% in size; many hits overshoot -100%
Target sequence (P80244 whole entry, looked up): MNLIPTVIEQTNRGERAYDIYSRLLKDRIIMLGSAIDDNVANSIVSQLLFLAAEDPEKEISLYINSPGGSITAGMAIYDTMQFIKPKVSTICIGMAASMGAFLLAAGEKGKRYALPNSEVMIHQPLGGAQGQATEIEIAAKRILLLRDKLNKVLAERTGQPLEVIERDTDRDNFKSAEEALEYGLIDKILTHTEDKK
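FRET quenching reversal measured ClpP activation: 10 microg/mL B. subtilis ClpP at pH 8 with the FRET-FV decapeptide, read at 430 nm after 320 nm excitation. The 20-min minus 0-min signal was scaled between DMSO/no-enzyme wells and ADEP (5.8 microM final).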
PINK1 modulator = modulators of PINK1 expression | PINK1 immunofluorescence, high-content cytometry, 24 h | Potency, µM (series often up to 76.6 µM), for inactives: at the top dose activation (PINK1 increase), usual class: activators | AID 624263 | 410,000 tested, 0.2% active; active = well fitted activation curve with a large enough effect; inconclusive = small, poorly fitted or top-dose-only effect; inactive = flat fitted curve, though single readings scatter; cell line not stated here;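 note: % of control where 0% means no effect; nearly all actives have a fitted effect of over 65% in size; a mitochondrial uncoupler was the plate control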
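A stable cell line was treated with compounds at 5 concentrations for 24 hours, with CCCP as control. PINK1 levels and mitochondrial localization were measured by immunofluorescence with mitochondrial, cell and nuclear markers after fixation, read by laser-scanning cytometry.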
* hit, by the source's call; ? = inconclusive; & = joins results of further samples. Potency is the fitted concentration of half-maximal effect. Only part of the results is shown; count on the stated rates, not on these rows.

SMILES	ClpP mod	PINK1 modulator
CCCN(Cc1cccs1)C(=O)Nc1cc(Cl)c(OC)cc1OC	-0.8%	-0.3%
COc1ccc(NC(=O)c2c(NCc3cccc(F)c3)sc3c2CCC3)c(OC)c1	0.4%	1.3%
CCc1ccc(S(=O)(=O)Nc2ccc3[nH]c(=O)sc3c2)cc1	-0.8%	0.7%
COc1ccc(/C=C/C(=O)Nc2cccc(F)c2)cc1	-4.0%	2.7%
CCN(CC)c1ccc2cc(-c3nnc(Nc4ccc(C)cc4)s3)c(=O)oc2c1	-3.2%	5.8%
O=c1[nH][nH]c2c1[C@@H](c1ccc(F)cc1)O[C@H](CCc1ccccc1)C2	2.3%	1.8%
COc1ccc2c(c1)CC(C(=O)N1CCC(C(N)=O)CC1)CO2 (stereo not given)	-16.4%	-0.2%
O=C(CC1N=C2c3ccccc3N=C(SCc3ccc(F)cc3)N2C1=O)NCCc1ccccc1 (stereo not given)	4.3%	3.1%
Cc1ccc(N(CC(=O)Nc2ccc(OC(F)(F)F)cc2)S(=O)(=O)c2c(C)noc2C)cc1	3.0%	13.7%
Cc1nc([N+](=O)[O-])cn1CC(=O)c1ccc2c(c1)OCCCO2	2.2%	0.9%
Cc1ccc(-c2nc(C(=O)N3CCN(c4ccccc4)CC3)c3n2CCCCC3)cc1	-1.2%	-0.6%
CC(C)c1nn2c(=O)cc(COC(=O)c3ccccc3NC(=O)C3CCCCC3)nc2s1	-24.5%	-0.5%
Cc1ccc2c(CNC3CCCC3)c(C(=O)O)n(Cc3ccc(F)cc3)c2c1	-14.0%	0.6%
COc1cccc(CNC(=O)c2ccc(CSc3nc4ccncc4n3Cc3cccc(C)c3)cc2)c1	?	-0.1%
CCc1ccc2c(c1)c(=O)c(C(=O)c1ccccc1)cn2CC(=O)Nc1ccc(C)c(Cl)c1	-2.3%	18.0%
CCOc1ccccc1NC(=O)c1cn(C2CCCCC2)c(=O)c2c1c1ccccc1n2C	-19.8%	-1.1%
Cc1ccc(-c2cc(NC(=O)COc3ccc(Cl)c(C)c3)on2)cc1	-0.1%	-1.4%
Cc1cc(-c2ccc(S(=O)(=O)NCc3ccccc3Cl)s2)on1	-28.7%	0.9%
CCOCCn1ccc2c(OCC(=O)Nc3cc(C(F)(F)F)ccc3Cl)cccc2c1=O	-3.2%	0.4%
COc1ccc(-c2ccc(CCC(=O)O)n2-c2ccccc2C(F)(F)F)cc1	-20.5%	0.7%
COC(=O)C(C)Sc1nnc2cc(C)c3cc(C)cc(C)c3n12 (stereo not given)	-8.0%	0.1%
CCOc1ccc(-c2cc3c(=O)n(Cc4nc(-c5ccc(OCC)c(OC)c5)oc4C)ccn3n2)cc1Cl	-1.3%	0.7%
Cc1ccc(CNc2ncnc3c2cnn3-c2ccc(Cl)cc2)cc1	?	-1.3%
Cc1ccn2c(Nc3ccc4c(c3)OCCO4)c(-c3ccc(C)s3)nc2c1	3.9%	-1.0%
COc1ccc(OC)c(NC(=O)c2nc(S(=O)(=O)Cc3ccccc3F)ncc2Cl)c1	-15.9%	13.6%

Another view of part of the listing above:
Compound: CCc1ccc(S(=O)(=O)Nc2ccc3[nH]c(=O)sc3c2)cc1
- ClpP mod: -0.8%
- PINK1 modulator: 0.7%

Compound: Cc1ccc(-c2nc(C(=O)N3CCN(c4ccccc4)CC3)c3n2CCCCC3)cc1
- ClpP mod: -1.2%
- PINK1 modulator: -0.6%

The listing continues.
SMILES	ClpP mod	PINK1 modulator
Cc1cccc(N2CCN(C(=O)c3cnc4c(C)cccn4c3=O)CC2C)c1 (stereo not given)	-12.2%	1.6%
COc1ccc(-c2cn3nc(N4CCCC(C(=O)NCCCOC(C)C)C4)sc3n2)cc1 (stereo not given)	0.4%	2.6%
CC1Cn2c(C(=O)NCc3ccccc3Cl)cc3cccc(c32)S1 (stereo not given)	28.2µM*	5.8%
CC(=O)c1cccc(NS(=O)(=O)c2c(C(=O)N3CCCCCC3)c(C)n(C)c2C)c1	-2.2%	-1.5%
CCOc1ccc(NC(=O)CSc2nnc(CNC(=O)C34CC5CC(CC(C5)C3)C4)n2CC)cc1	-1.3%	0.9%
COC(=O)c1cc(NC(=O)c2nn(C)c3c2CSc2ccccc2-3)cc(C(=O)OC)c1	-0.6%	3.6%
CCC(C(=O)Nc1cccc(C#N)c1)n1nc(-c2ccccc2)ccc1=O (stereo not given)	-12.2%	0.4%
CC(=O)N1CCc2cc(Br)cc(S(=O)(=O)N3CCC(C(=O)Nc4ccc(C(C)C)cc4)CC3)c21	0.6%	-1.3%
Cc1ccc(NC(=O)CN2C(=O)c3cccnc3Oc3ccc(Cl)cc32)cc1	-2.5%	0.7%
Cc1ccc(-c2nc3cc(NC(=O)c4cc5ccccc5o4)ccc3o2)cc1Cl	-12.4%	0.9%
CCC1CCCCN1C(=O)CSc1n[nH]c(-c2ccccc2)n1 (stereo not given)	1.5%	1.1%
CC(=O)c1ccc(NC(=O)C2Cc3ccccc3N2C(=O)c2ccccc2)cc1 (stereo not given)	0.5%	2.1%
CCOC(=O)C1CCN(C(=O)CSc2n[nH]c(-c3ccc(OC)cc3)n2)CC1	1.5%	0.6%
CCc1ccc(S(=O)(=O)c2nnn3c2nc(NCc2ccccc2OC)c2cc(Cl)ccc23)cc1	3.9%	-1.9%
CC(CCC(C)[n+]1cccc(Br)c1)[n+]1cccc(Br)c1 (stereo not given)	-0.3%	1.2%
COc1cccc(NC(=O)Cn2cnc3c(nc4n3CCCCC4)c2=O)c1	-0.5%	2.0%
CCc1ccccc1NC(=O)C1=CC(c2ccc3c(c2)OCO3)=NS(=O)(=O)N1C	-1.7%	-0.7%
Cc1cc(OC(=O)c2cc(-c3ccc4c(c3)OCCO4)on2)ccc1Cl	-24.6%	2.6%
CCOc1ccc(N(CC(=O)Nc2ccccc2CC)S(=O)(=O)c2c(C)[nH]c(=O)[nH]c2=O)cc1	-0.4%	1.6%
CCOC(=O)[C@]12CCC=C1N(Cc1ccccc1)C(=O)[C@H](CC(=O)N1CCCCC1)C2	-2.3%	-0.1%
Cc1ccc(C)c(Cn2c(=O)n(Cc3ccc(C(=O)NC4CCN(Cc5ccccc5)CC4)cc3)c(=O)c3ccccc32)c1	-0.4%	3.1%
CC(=O)NCCCNC(=S)NCCCN(Cc1ccc(Cl)cc1)c1ccc(Br)cn1	-12.1%	6.4%&0.6%
COc1ccccc1NC(=O)Cn1c(=O)n(CCc2ccccc2)c(=O)c2c3c(sc21)CN(C(C)=O)CC3	-2.5%	3.4%
CCN(CC)S(=O)(=O)c1ccc(C(=O)NC2CC(=O)N(c3ccc(OC)c(OC)c3)C2)cc1 (stereo not given)	0.0%	0.2%
Cc1ccc(S(=O)(=O)N(Cc2nc(-c3cccc(C)c3)no2)C2CCCCC2)cc1	-5.7%	1.3%

Quoted at random: 7 compounds from above
SMILES	ClpP mod	PINK1 modulator
COc1ccc(NC(=O)c2c(NCc3cccc(F)c3)sc3c2CCC3)c(OC)c1	0.4%	1.3%
CCc1ccccc1NC(=O)C1=CC(c2ccc3c(c2)OCO3)=NS(=O)(=O)N1C	-1.7%	-0.7%
COc1ccccc1NC(=O)Cn1c(=O)n(CCc2ccccc2)c(=O)c2c3c(sc21)CN(C(C)=O)CC3	-2.5%	3.4%
Cc1cc(OC(=O)c2cc(-c3ccc4c(c3)OCCO4)on2)ccc1Cl	-24.6%	2.6%
COc1cccc(NC(=O)Cn2cnc3c(nc4n3CCCCC4)c2=O)c1	-0.5%	2.0%
Cc1cc(-c2ccc(S(=O)(=O)NCc3ccccc3Cl)s2)on1	-28.7%	0.9%
COc1ccc(-c2cn3nc(N4CCCC(C(=O)NCCCOC(C)C)C4)sc3n2)cc1 (stereo not given)	0.4%	2.6%

(more compounds)
SMILES	ClpP mod	PINK1 modulator
CCCCn1nnnc1C(c1ccccc1)N1CCN(c2ncc(C(F)(F)F)cc2Cl)CC1 (stereo not given)	1.5%	0.6%
CCN(C(=O)c1nn(-c2ccc(C)cc2)c(=O)c2c1c1ccccc1n2C)c1ccc(F)cc1	-1.0%	0.1%
O=C(CN1C(=O)COc2ccc(S(=O)(=O)N3CCOCC3)cc21)NCc1ccc(Cl)cc1	1.0%	-1.6%
CCOc1ccc(NC(=O)CCc2c(C)nc3c(-c4ccccc4)c(C)nn3c2C)cc1	-8.7%	1.7%
CN(C)c1ccc(C=Nc2cncc3ccccc23)cc1	20.4%	0.2%
O=C(CSc1nc(-c2ccccc2)cn1-c1ccccc1F)Nc1ccc(F)cc1	-1.8%	2.2%
Cc1ccccc1Cn1c(=O)n(CC2CCC(C(=O)N3CCC(C)CC3)CC2)c(=O)c2sccc21 (stereo not given)	-5.4%	0.4%
O=C(CC(c1ccccc1)c1cc(Br)ccc1O)NCC1(c2ccccc2)CCCC1 (stereo not given)	-3.6%	1.9%
CCc1ccc(Nc2nc3c(S(=O)(=O)c4cccc(Cl)c4)nnn3c3ccsc23)cc1	-0.4%	-1.4%
COc1ccccc1C(=O)Nc1ccc2oc(-c3cccc4c(Br)cccc34)nc2c1	3.9%	-0.6%
Cc1sc2ncn(CC(=O)N3CCN(c4cccc(Cl)c4)CC3)c(=O)c2c1S(=O)(=O)N1CCN(c2ncccn2)CC1	-1.5%	-0.2%
COc1ccc(CC(=O)NCc2ccc3c(c2)CCN3C(=O)c2ccc(Cl)cc2)cc1OC	2.7%	2.0%
Cc1ccc(-c2cc(NC(=O)C(C)Oc3ccccc3F)on2)cc1 (stereo not given)	-0.3%	-0.4%
O=S(=O)(c1ccc(Br)cc1)c1nnn2c1nc(Nc1cccc(C(F)(F)F)c1)c1sccc12	-3.2%	1.4%
O=C1COc2cc(S(=O)(=O)CCC(=O)N3CCN(c4ccccc4)CC3)c(Cl)cc2N1	-1.8%	-0.7%
COc1cccc(CNC(=O)[C@@H]2CCCN2C(=O)[C@H]2CCCCN2C(=O)c2ccccc2C)c1	-0.6%	-0.4%
O=C(NCCN1CCC(n2c(=O)[nH]c3ccccc32)CC1)c1ccc(Cl)c(Cl)c1	-1.3%	2.2%
COc1cc(NC(=O)CC2C(=O)N(c3ccc(Cl)cc3)C(=O)N2Cc2cccs2)cc(OC)c1 (stereo not given)	0.8%	0.3%
Cc1ccc(Nc2c(-c3ccc(C)cc3)nc3ccc(C)cn23)cc1	?	0.9%
CCOc1cc(C(=O)Nc2ccc(-c3nc4cc(Cl)ccc4o3)cc2)cc(OCC)c1OCC	?	4.1%
Cc1cc(C)c(-c2n[nH]c3c2C(c2ccccc2F)N(Cc2ccco2)C3=O)c(O)c1 (stereo not given)	-4.0%	3.8%
CCOC(=O)c1cnn2c(C(F)(F)F)cc(-c3ccc(Br)cc3)nc12	-4.8%	4.3%
CC(C)n1c(=N)c(C(=O)NCc2ccccc2)cc2c(=O)n3ccccc3nc21	4.5%	0.7%
COCCN1C(=O)COc2ccccc2C1C(=O)Nc1ccc2c(c1)OCCO2 (stereo not given)	-0.4%	0.4%
COc1ccc(OC)c(Nc2nc3ccccc3nc2-n2nc(C)cc2C)c1	-0.4%	-0.9%

Going on with the list:
SMILES	ClpP mod	PINK1 modulator
Cc1ccc(-c2cc(C(F)(F)F)c(C#N)c(SCC(=O)Nc3ccccc3F)n2)cc1	-15.2%	1.0%
CCc1nn2c(=O)cc(COC(=O)c3ccc(NC(=O)CCc4ccccc4)cc3)nc2s1	?	2.7%
COCCNC(=O)CSc1nnc(-c2ccc(OC)c(OC)c2)c(-c2ccc(OC)c(OC)c2)n1	-10.9%	1.7%
Cc1ccc(NC(=O)c2c(NC(=O)c3ccc(F)cc3)sc3c2CCCC3)cc1C	-3.1%	-0.9%
CCOC(=O)c1c(NC(=O)c2ccc(S(=O)(=O)N(CC)CC)cc2)sc2c1CCCCC2	-3.6%	-1.1%
COc1ccc(CCNC(=O)C(=O)NCC(c2ccco2)S(=O)(=O)c2ccc(C)cc2)cc1 (stereo not given)	1.9%	10.7%
COc1cc2c(cc1OC)C(c1cc(-c3cc(Cl)ccc3Cl)oc1C)=NCC2	-10.4%	1.6%
CCOc1ccccc1CNC(=O)Cn1nc(N2CCN(c3ccccc3)CC2)ccc1=O	-2.2%	1.6%
CCCN(C(=O)c1cc(S(=O)(=O)N2CCc3ccccc32)cn1C)c1ccc(OCC)cc1	-2.2%	0.5%
CN(C)c1ccc(/C=C(\C#N)c2nc3ccccc3c(=O)[nH]2)cc1	-2.5%	0.6%
CCc1cccc(NC(=O)CCS(=O)(=O)c2cc(Br)cc3c2N(C(C)=O)CC3)c1	1.4%	-0.3%
COc1cc(/C=C(\C#N)c2nc3ccccc3n2C)cc(OC)c1OC	0.5%	10.1%
Cc1ccc(S(=O)(=O)c2c(O)cc(C)c(NS(=O)(=O)c3ccc(Br)cc3)c2C)cc1	-5.4%	0.8%
COc1ccc(NC(=O)CN(c2cccc(C)c2C)S(=O)(=O)c2ccccc2)cc1OC	-2.7%	0.1%
CCN(Cc1ccccc1)C(=O)CN1C(=O)CSc2ccc(S(=O)(=O)N(CC)CC)cc21	-5.3%	1.3%
CCCN1CNc2c(c(=O)[nH]c(=S)n2CCc2cc(C)ccc2C)C1	-2.5%	-0.1%
Cc1c(C(=O)N2CCC(C)CC2)c(S(=O)(=O)Nc2cccc(C(F)(F)F)c2)c(C)n1C	1.2%	-0.4%

Compound activity as filed in PubChem BioAssay.
